High-throughput results as filed in PubChem.
Tgondii IFNg = T. gondii growth inhibition with IFN-gamma, primary screen, cell-based; Toxoplasma gondii growth in IFN-gamma-treated host cells; stronger effect = lower value; reference of the scale not given here; activity change, negative = inhibition, %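 (about 20 µM by stock and volumes)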; hit rate 3.8% among 69,000; AID 1259416, 2018;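 active = below -70%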;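 also: host cells are HeLa cells infected with Toxoplasma gondii; parasite growth read as luciferase light; one replicate is shown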
The depositor's hits bear a star; & = joins results of further samples; ! = repeats disagree. Only part of the results is shown (hit frequency here may not be typical).

SMILES	Tgondii IFNg
COCCN1CCC2(CCCN(Cc3ccccn3)C2)C1=O (stereo not given)	5
Cc1cccc(NC(=O)c2cc3cccnc3n(Cc3ccccc3)c2=O)c1	80
Cn1cc(C(=O)C(=O)N[C@H]2CN3CCC2CC3)c2ccccc21	-80*!
Clc1cncc(OC[C@H]2CO[C@@H]3CN(Cc4cccs4)C[C@@H]23)c1	-36
CC(=O)O[C@H]1C(=O)[C@@]2(C)C([C@H](OC(=O)c3ccccc3)[C@]3(O)C[C@H](O)C(C)=C1C3(C)C)[C@]1(OC(C)=O)CO[C@@H]1C[C@@H]2O (stereo not given in full)	-74*
O=C(NCCCN1CCCC1=O)c1cc2cccnc2n(Cc2ccccc2)c1=O	-22
C=C(C)[C@@H]1[C@H]2OC(=O)[C@H]1[C@]1(O)C[C@H]3O[C@]34C(=O)O[C@H]2[C@]14C	9
Cc1ccc2c(n1)N(C)CCN(Cc1nccn1C)C2	119
COC(=O)[C@H]1[C@H](CO)[C@H]2Cn3c(ccc(-c4cccc(C(=O)N(C)C)c4)c3=O)[C@@H]1N2C(=O)NC(C)C	19
COc1cc([C@@H]2c3cc4c(c(O)c3C[C@H]3COC(=O)[C@@H]32)OCO4)cc(OC)c1OC	-68
c1csc(CN2CCN(CC3CC3)c3ncccc3C2)c1	-22
O=C(Nc1ccc(C(F)(F)F)cc1)c1cc2cccnc2n(Cc2ccccc2F)c1=O	17
CN1CCN(Cc2cccnc2)C(=O)C12CCN(S(C)(=O)=O)CC2	7
Fc1ccc(C(OCCN2CCN(CCCc3ccccc3)CC2)c2ccc(F)cc2)cc1	14&-54
CC(C)CN1CCC2(COCc3cnc(N(C)C)nc32)C1 (stereo not given)	6
Cc1nc2n(CCN3CCOCC3)c3ccccc3n2c1C(=O)c1cccs1	-1
COc1cccc(-c2ccc([C@@H]3[C@H](CO)N4CCCCN(C(=O)Cc5ccncc5)C[C@@H]34)cc2)c1	-36
NC(=O)c1ccccc1NC(=O)c1cc2cccnc2n(Cc2ccc(F)cc2)c1=O	69
CN(C)CCN1CCN(CC2CC2)c2ncccc2C1	-1
CC(C)C1(NC(=O)C2CC3c4cccc5[nH]cc(c45)CC3N(C)C2)OC2(O)C3CCCN3C(=O)C(Cc3ccccc3)N2C1=O (stereo not given)	-65
O=C(Nc1ccc(F)c(Cl)c1)c1cc2cccnc2n(Cc2ccccc2F)c1=O	2
CN1CCN2C[C@@H](NC(=O)c3onc4ccccc34)C[C@H]2C1	-16
CC1(C)C(=O)[C@@H]2O[C@@H]2[C@@]2(C)C1C[C@@H](O)[C@]1(C)C2CC[C@@]2(C)[C@H](c3ccoc3)OC(=O)C3OC321 (stereo not given in full)	5
CN(C)c1ncc2c(n1)C1(CCN(CC3CC3)C1)COC2 (stereo not given)	-35
N#CCN1CCC2(CC1)C(=O)N(c1cncnc1)c1ccccc12	26
O=C(NCCCc1ccccc1)c1cc2cccnc2n(Cc2ccc(Cl)cc2)c1=O	26
Cc1[nH]c2ccc(Cl)cc2c1C1=CCNCC1	13&43
Cc1noc(C)c1CN1CCC2(CC(=O)N(c3ccccc3)C2)C1 (stereo not given)	5
Cc1cccc(CN2C[C@@H]3CCCN(CC(=O)O)[C@@H]3C2)n1	-7
COc1cc2c(cc1O)C(CCc1ccc(Cl)cc1)N(C)CC2 (stereo not given)	-3&-3
Cc1cc(C)c(NC(=O)c2cc3cccnc3n(Cc3ccc(F)cc3)c2=O)c(C)c1	-78*
c1cncc(CN2CCC3(CC(OCC4CC4)CO3)C2)c1 (stereo not given)	14
CCOc1ccccc1NC(=O)c1cc2cccnc2n(Cc2ccc(Cl)cc2)c1=O	11
Cc1[nH]c2ccc(O)cc2c1CCN	8&24
O=C1CNC[C@@H]2[C@@H](c3ccc(Br)cc3)[C@@H](CO)N12	9
Cc1ccc(NC(=O)c2cc3cccnc3n(Cc3ccccc3)c2=O)cc1	119
O=C(C1CC=CC1)N1CCC2(CCCNC2)CC1	-67
Cc1ccsc1CN1C[C@H]2COC[C@@]2(CNC(=O)c2ccno2)C1	-11
CNC(=O)[C@H]1C[C@H]2CCN(Cc3c(C)noc3C)C[C@H]2O1	1
CO[C@@H]1C(O)[C@H](O[C@H]2CC[C@@]3(C=O)[C@H](CC[C@@H]4[C@@H]3CC[C@]3(C)[C@@H](C5=CC(=O)OC5)CC[C@]43O)C2)OC(C)[C@@H]1O (stereo not given in full)	-75*
COC(=O)c1ccc(NC(=O)c2cc3cccnc3n(Cc3ccc(F)cc3)c2=O)cc1	11
CC(=O)Nc1cccc(NC(=O)c2cc3cccnc3n(Cc3ccc(Cl)cc3)c2=O)c1	139
CCC1CN(Cc2cc(F)c(OC)c(Cl)c2)CCN1C(C)C (stereo not given)	11
N#Cc1cccc(CN2CCC3NC(=O)CC32)c1 (stereo not given)	21
Cc1ccc(NC(=O)c2cc3cccnc3n(Cc3ccccc3F)c2=O)c(C)c1	12
CCC1(CC)C(=O)C=CNC1=O	12&9
CCOC1C2CCC1N(Cc1c(C)noc1C)C2 (stereo not given)	1
c1cnc(N2CC[C@@H]3CN(Cc4ccncc4)CCO[C@H]3C2)nc1	-42

4 entries picked at random from the list so far:
SMILES	Tgondii IFNg
Cc1cc(C)c(NC(=O)c2cc3cccnc3n(Cc3ccc(F)cc3)c2=O)c(C)c1	-78*
CCOc1ccccc1NC(=O)c1cc2cccnc2n(Cc2ccc(Cl)cc2)c1=O	11
CC(C)CN1CCC2(COCc3cnc(N(C)C)nc32)C1 (stereo not given)	6
CN1CCN2C[C@@H](NC(=O)c3onc4ccccc34)C[C@H]2C1	-16

Next part
SMILES	Tgondii IFNg
CCN1C[C@H]2COC[C@H](CC(=O)NCCc3ccncc3)[C@H]2C1	2
Cc1cnc(N2CCC3(CCCN3CC3CC3)CC2)nc1	0
C[N+]1(C)CCOC(O)(c2ccc(-c3ccc(C4(O)C[N+](C)(C)CCO4)cc3)cc2)C1 (stereo not given)	-16
CCC(=O)N1[C@@H]2c3ccc(C4=CCCC4)c(=O)n3C[C@H]1[C@H](CO)[C@H]2C(=O)OC	-2
Cc1cc(C(=O)N2CCN(C)C3(CCN(C)CC3)C2)nc(C)n1	11
O=C(Nc1cccc(Br)c1)c1cc2cccnc2n(Cc2ccccc2F)c1=O	0
CN(C)CC#Cc1ccc([C@@H]2[C@@H](CO)N3CCCCN(C(=O)Cc4ccccn4)C[C@@H]23)cc1	1
O=C(NCC1CCOCC1)c1cnc(Nc2ccc(Cl)cc2Cl)nc1C(F)(F)F	-74*
Cc1ccc(NC(=O)c2c(O)c3cccnc3n(Cc3ccccc3)c2=O)c(C)c1	45
CCN(CC)C(=O)c1ccc(C2=CC3(CCNCC3)Oc3cccc(O)c32)cc1	15
CNC(=O)[C@@H]1COC[C@@H]2CN(Cc3ccncc3)C[C@@H]21	-14
CCC1/C=C/C=C/C[C@H](C)[C@@H](O)[C@](C)(O)C(=O)[C@@H](C)[C@H](O)[C@@H](C)C(=O)[C@H](C)[C@@H](O)[C@H](C)/C=C/C(=O)OC2[C@@H](C)C(CC1)OC1(CC[C@@H](C)C(C[C@H](C)O)O1)[C@@H]2C (stereo not given in full)	-60

Shown field by field: four of the compounds above.
CCC(=O)N1[C@@H]2c3ccc(C4=CCCC4)c(=O)n3C[C@H]1[C@H](CO)[C@H]2C(=O)OC
- Tgondii IFNg = -2
Cc1cc(C(=O)N2CCN(C)C3(CCN(C)CC3)C2)nc(C)n1
- Tgondii IFNg = 11
O=C(Nc1cccc(Br)c1)c1cc2cccnc2n(Cc2ccccc2F)c1=O
- Tgondii IFNg = 0
CN(C)CC#Cc1ccc([C@@H]2[C@@H](CO)N3CCCCN(C(=O)Cc4ccccn4)C[C@@H]23)cc1
- Tgondii IFNg = 1

Following part:
SMILES	Tgondii IFNg
CCCSc1ncc(CN2CCN3CCN(C)CC3C2)cn1 (stereo not given)	36
O=C1COC2(CNCCOC2)CN1CC1CC1 (stereo not given)	108
CN1C[C@@H](COCc2cccnc2)[C@]2(CCN(S(C)(=O)=O)C2)C1	-16
Clc1ccc(C2=CCCC3CCC2N3)cn1 (stereo not given)	13&5
CN1C[C@H]2COC[C@H](CC(=O)NCCc3ccncc3)[C@H]2C1	1
CC(C)CCCC1(C)C=Cc2c(O)c3c(c(CCC(C)C)c2O1)OC12C(CC4CC1C(C)(C)OC2(CCC(C)C(=O)O)C4O)C3=O (stereo not given)	4
CCC1CN(Cc2ccc(Cl)cc2F)CCN1C(C)C (stereo not given)	11
CN(C)CCN1CC[C@H]2[C@@H]1CCN2C(=O)Cc1ccsc1	0
c1ccc(CN2CC[C@@H](OCc3ccccn3)[C@@H]3OCC[C@H]32)cc1	0
C=CCN1CC[C@@H]2[C@@H]1CCN2c1cccc(C)n1	2
C[N+]12CC[C@@]34c5ccccc5N5C(=O)CC6OCC=C(C1)[C@H](CC32)[C@@H]6C54 (stereo not given in full)	21
COc1cc2occc2c2oc(=O)ccc12	-1
Cc1cccnc1CN1C[C@@H](C(=O)N2CCCCO2)[C@@H]2OCC[C@H]21	3
COc1cc(N2CCCC3(CCN(CC(C)C)C3)C2)ncn1 (stereo not given)	23
NCC(O)c1ccc(O)cc1 (stereo not given)	-2
c1cnc2c(C3NCCc4[nH]cnc43)cnn2c1 (stereo not given)	-7
COCCO[C@@H]1C[C@@H]2CN(C(=O)c3ccncc3)CCN2C1	53
CS(=O)(=O)c1ccc(CN2CCCC(C(=O)c3ccccn3)C2)cc1 (stereo not given)	-25
O=C(Nc1ccc(C(F)(F)F)cc1)c1cc2cccnc2n(Cc2ccc(F)cc2)c1=O	40
CC(C)CN1C[C@@H]2CN(S(C)(=O)=O)c3ccccc3[C@H]2C1	-2
C[C@]12CC[C@H](OC3OC(O)C(O)C(O)C3O)C=C1CCC1C2CC[C@]2(C)[C@@H](c3ccc(=O)oc3)CC[C@]12O (stereo not given in full)	-80*
CN1CCOCC12CCN(c1ncccn1)CC2	57
COCc1cncc2c1CCN(S(=O)(=O)c1ccccc1)C2	10
OC(c1ccccc1)(c1ccccc1)C1CCNCC1	8&-58
CC1=C[C@H]2[C@]3(O)[C@H](C)[C@@H](O)[C@@]4(O)[C@H]([C@@H]3C=C(CO)C[C@]2(O)C1=O)C4(C)C	11
Cc1nc(C2=CCN(Cc3cccc4ccccc34)CC2)nc(N2CCOCC2)c1C	115
Clc1cccc(-c2nccn2CCc2cnc[nH]2)c1	0
CC(C)CN1CC[C@H]2[C@@H]1CCN2Cc1nccs1	-27
CC(C)=CCCC1(C)C=Cc2c(O)c3c(c(CC=C(C)C)c2O1)OC12C(=CC4CC1C(C)(C)OC2(CC=C(C)C(=O)O)C4=O)C3=O (stereo not given)	-69
O=C(O)CN1CC2(CCN(c3nccs3)C2)C1	-1
O=C(C[C@H]1C[C@@H]2CNC[C@@H]2O1)NCc1cccs1	7
CNC(=O)CN1CCC12CCN(C(=O)Cc1cccs1)C2 (stereo not given)	26
Cc1noc(C)c1CN1CC2CC(C1)N(Cc1ccco1)C2 (stereo not given)	-13
O=C1CN=C(c2ccccc2Cl)c2cc([N+](=O)[O-])ccc2N1	-39
CN1[C@H](CO)[C@H]2c3ccccc3NC[C@H]21	1
N#Cc1ccc(N2CCN(C(=O)COc3ccc4[nH]cc(CCN)c4c3)CC2)cc1	-22
CC(C)(C)OC(=O)c1ncn2c1[C@@H]1CCCN1C(=O)c1c(Br)cccc1-2	16
c1ccc(CO[C@@H]2C[C@@H]3CN(c4ncccn4)CCN3C2)cc1	-33
CN(C)C(=O)CN1CCO[C@H]2CN(c3ncc(F)cn3)C[C@@H]21	2
O=C1NCCN2CCN(C(=O)Cc3[nH]nc4ccccc34)CC12 (stereo not given)	14
O=C(NCc1ccccn1)c1cc2cccnc2n(Cc2ccc(F)cc2)c1=O	-19
CCN(CC)c1ccc(NC(=O)c2cc3cccnc3n(Cc3ccccc3)c2=O)c(C)c1	100
O=C(NCc1cccnc1)c1cc2cccnc2n(Cc2ccccc2)c1=O	38
O=C(NC1CCCCCCCCCCC1)c1cc2cccnc2n(Cc2ccccc2)c1=O	75
c1cc2c(c(-c3nccc4occc34)c1)CCNC2	-48
CSc1ccccc1NC(=O)c1cc2cccnc2n(Cc2ccccc2)c1=O	14
Cc1cc(NC(=O)c2cc3cccnc3n(Cc3ccccc3)c2=O)no1	93
NC1CCN(c2cccnc2)C1 (stereo not given)	13
Cc1cc(CC(=O)N2CCCN(C)C3(CCN(C)CC3)C2)on1	4
COc1ccc2[nH]cc(CCN(C)C)c2c1	17
COc1ccc(CC2NCCc3cc(OC)c(OC)cc32)cc1OC (stereo not given)	-11
O=C(N[C@H]1c2ccccc2[C@@H]2CNC[C@H]21)c1ccncc1	-3
Cc1cccc(Cc2cnc[nH]2)c1C	24
CC(C)NCC(O)c1ccc(N)c(C#N)c1 (stereo not given)	-6&16
O=C(NCc1ccco1)c1cc2cccnc2n(Cc2ccc(Cl)cc2)c1=O	-20
CCN1CCC12CCN(C(=O)Cc1cccs1)C2 (stereo not given)	3
COc1cc2ccc(=O)oc2c2ccoc12	3
CCCCCCCCCCCCCC(=O)O[C@@H]1[C@@H](C)[C@@]2(O)[C@@H](C=C(CO)C[C@]3(O)C(=O)C(C)=C[C@@H]23)[C@@H]2C(C)(C)[C@]12OC(C)=O	-78*!
COCCN1CCN(C)C2(CCN(Cc3ccncc3)CC2)C1=O	-22
COc1c(C)cc(C(=O)C2CCCNC2)cc1C (stereo not given)	5
Cc1cccnc1-n1c(-c2ccccc2)nc2ccccc2c1=O	44
CN(C)C(=O)Oc1cc(OC(=O)N(C)C)cc(C(O)CNC(C)(C)C)c1 (stereo not given)	13&14
N#Cc1ccccc1NC(=O)c1cc2cccnc2n(Cc2ccccc2F)c1=O	-8

Individual results from the list:
`O=C(NCCCN1CCCC1=O)c1cc2cccnc2n(Cc2ccccc2)c1=O` in Tgondii IFNg is entered as -22
`C=CCN1CC[C@@H]2[C@@H]1CCN2c1cccc(C)n1` in Tgondii IFNg is entered as 2
